# Source: PubChem BioAssay
# Sa growth 42C = inhibitors of Staphylococcus aureus growth at 42 °C; S. aureus RN4220 growth, OD600, 20 h; hits give low values; relative growth, % (concentration not given with the values); hit rate 0.53% among 170,000;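 active = growth at 42 °C up to 50% and 20 or more points under that at 30 °C, or under 10% at both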;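 note: 300 nL library stock went into each well; scaled to the means of positive and negative controls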
# GIV-Gai inh = blocks GIV peptide binding to rat Galpha-i3 | AID 1224905 | Galpha-i3/FITC-GIV peptide fluorescence polarization, 90 min; hits give low values; scaled: aluminum fluoride 0%, vehicle 100% | P08753 | hit rate 0.42% among 210,000 | percent of control (FP), % (test concentration not listed);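 active = replicate mean at 85% of control or lower, very high polarization wells dropped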;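 note: wells of about 15 µL received 100 nL stock; the first replicate is given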
# Target sequence (P08753 whole entry, looked up): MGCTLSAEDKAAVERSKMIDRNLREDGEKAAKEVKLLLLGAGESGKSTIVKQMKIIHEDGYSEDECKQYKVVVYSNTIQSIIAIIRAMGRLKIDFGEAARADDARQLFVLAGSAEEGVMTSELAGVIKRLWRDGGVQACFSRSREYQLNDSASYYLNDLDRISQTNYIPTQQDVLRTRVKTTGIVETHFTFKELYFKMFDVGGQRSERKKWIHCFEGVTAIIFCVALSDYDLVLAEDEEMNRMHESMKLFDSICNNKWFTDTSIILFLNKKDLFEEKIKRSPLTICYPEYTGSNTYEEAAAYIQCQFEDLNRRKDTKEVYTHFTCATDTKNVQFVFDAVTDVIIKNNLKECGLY
# HCMV NEC inh = inhibitors of HCMV UL50-UL53 nuclear egress complex interaction | HTRF UL50-UL53 interaction, normalized percent inhibition | inhibition, % (test concentration not listed) | hit rate 0.15% among 190,000;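 active = both replicates at 50% or more, plus weaker picks with an unusually low signal ratio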;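 note: stock transfer was 100 nL into about 20 µL; 0% = negative control wells and 100% = wells with untagged competitor protein; inactives centre near -12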
# Sa growth 42C second temp = further read-out of Sa growth 42C, marked with its call; relative growth, %; measured here: growth at 30 °C;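 optical density after 20 h as mean of two plates; 100% = untreated growth and lower means inhibition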
# An asterisk follows results filed as active; / = no result given; & = joins results of further samples. Outcome played no part in choosing rows; about 0.85% have a hit in one of these screens.
SMILES	Sa growth 42C	Sa growth 42C second temp	GIV-Gai inh	HCMV NEC inh
Cc1oc2nc[nH]c(=O)c2c1C(=O)Nc1cccc(C(F)(F)F)c1	62.5	68.1	/	-24.3
COC(=O)N/N=C/c1c[nH]c2ccccc12	93.9	92.6	95.9	-38.7
CCOC(=O)c1c(NC(=O)C2=Cc3ccccc3OC=C2)sc2c1CCC(CC)C2 (stereo not drawn)	/	/	104.3	11.6
O=C(NCCc1ccccc1)NCCn1c(-c2ccc(F)cc2)nc2ccccc21	/	/	106.5	-8.6
CCC(Oc1ccc(F)cc1)C(=O)Nc1nonc1-c1ccc(Br)cc1 (stereo not drawn)	/	/	102.0	-7.5
Cc1ccc(-c2noc(CCCCCN=Cc3c(O)[nH]c(=O)[nH]c3=O)n2)cc1	97.9	98.5	/	-3.4
c1ccc(-c2nnn3c2nc(N2CCCCC2)c2ccccc23)cc1	93.2	86.3	98.0&105.0	-14.8&-3.3
O=C(NC1CCCCC1)c1ccc(CSc2nc3cccnc3n2Cc2ccccc2F)cc1	124.4	94.2	104.9	/
Cc1ccc(N2C(=O)CSC2=S)c(C)c1	106.0	89.2	109.7	-16.9
CC(C)(C)NC(=O)CC(c1ccccc1)c1ccccc1	100.3	133.9	/	3.9
C/C(=C/c1ccccc1)C(=O)Nc1ccc2nc3n(c(=O)c2c1)CCCCC3	102.2	56.2	105.6	/
CC1(C)CC(=O)N(CC(=O)N2CCN(c3cccc(C(F)(F)F)c3)CC2)c2ccccc2S1	107.0	76.2	104.3	/
Cc1ccc(N(Cc2nc3nc(C)cc(C)n3n2)C(=O)c2ccc(C(C)(C)C)cc2)cc1	/	/	103.1	8.3
O=C1N(c2ccccc2)C2CS(=O)(=O)CC2N1c1ccccc1 (stereo not drawn)	100.4	94.9	103.3	12.1
CSc1scc(-c2cc(Cl)cc(Cl)c2)c1C#N	110.1	92.0	105.7	2.5
Cc1nc(Nc2ccc(F)cc2)nc2c1nnn2-c1ccc(F)cc1	/	/	105.3	-19.7
COc1ccc(-c2cc3nc(C4CCN(C(=O)OC(C)(C)C)CC4)c(C(=O)Nc4cc(Cl)cc(Cl)c4)cn3n2)cc1	98.2	89.9	103.2	-16.2
O=C(COc1ccc(F)cc1)Nc1ccc(C(=O)OCc2cc(=O)n3nc(C4CC4)sc3n2)cc1	86.2	88.8	100.4	/
COc1ccc(C)cc1Nc1nc(N)c2cc(OC)c(OC)cc2n1	98.0	75.5	107.0	-3.7
CCn1c(=O)oc2cc(NS(=O)(=O)c3c(C)noc3C)ccc21	/	/	102.2	1.5
Cc1ccc2[nH]c(=O)c(CN(C)C(=O)c3cccc(Cl)c3)cc2c1	117.4	95.9	106.5	/
COc1ccc(S(=O)(=O)C2CS(=O)(=O)CC2O)cc1 (stereo not drawn)	90.8	84.0	101.4	-42.5
Cc1ccc2[nH]c(=O)c(CNCCCO)cc2c1	85.4	104.6	96.6	-35.8
Cc1nn(C)c(C)c1NC(=O)c1ccc(Cl)cc1	107.8	91.8	104.7	/
O=C(O)c1cccnc1-c1ncccc1C(=O)O	116.6	89.8	106.7	0.5
CCCCC(CC)Cn1c(Oc2ccccc2)nc2c1c(=O)n(C)c(=O)n2C (stereo not drawn)	101.9	88.8	107.2	-19.6
CC(=O)Nc1cc(C(N)=O)cc(C(N)=O)c1	99.2	111.9	102.6	10.9
COc1ccc(CCNC(=O)c2nnn(-c3cccc(C)c3)c2N)cc1OC	114.6	74.3	103.5	/
Cc1ccc(/C=N/N2C(=O)c3ccccc3C2=O)o1	103.5	88.1	/	-61.9
Cc1cccc(N2CCN(C(=O)CCS(=O)(=O)c3ccc4c(c3)oc(=O)n4C)CC2)c1C	63.2	37.2	107.6	/
O=C(Cn1nc2n(Cc3ccccc3)c(=O)c3ccccc3n2c1=O)NCc1ccccc1	/	/	98.6	-2.1
O=C(CCN1C(=O)C2C3C=CC(C3)C2C1=O)Oc1cccc2cccnc12 (stereo not drawn)	98.1	0.8	103.1	-25.5
COc1ccc(-c2nsc(NC(=O)COc3ccccc3OC)n2)cc1	106.0	89.9	99.5	-5.1
CC(=O)N1CCCC1(C(=O)O)c1ccccc1 (stereo not drawn)	89.0	82.8	100.6	-14.8
COc1cccc2c1OC1(C)NC(=S)NC2C1C(=O)N(C)C (stereo not drawn)	87.2	88.6	96.5	/
O=C(Oc1ccc2oc(=O)sc2c1)c1sc2ccccc2c1Cl	/	/	108.1	6.5

# Shown with values under each structure: 4 of the compounds above
# The line under a structure holds: Sa growth 42C | Sa growth 42C second temp | GIV-Gai inh | HCMV NEC inh
O=C(Cn1nc2n(Cc3ccccc3)c(=O)c3ccccc3n2c1=O)NCc1ccccc1
→ / | / | 98.6 | -2.1
COc1ccc(-c2nsc(NC(=O)COc3ccccc3OC)n2)cc1
→ 106.0 | 89.9 | 99.5 | -5.1
O=C(CCN1C(=O)C2C3C=CC(C3)C2C1=O)Oc1cccc2cccnc12 (stereo not drawn)
→ 98.1 | 0.8 | 103.1 | -25.5
CC(=O)N1CCCC1(C(=O)O)c1ccccc1 (stereo not drawn)
→ 89.0 | 82.8 | 100.6 | -14.8

# Remaining list, next part.
SMILES	Sa growth 42C	Sa growth 42C second temp	GIV-Gai inh	HCMV NEC inh
Cc1nc2ccccc2c(=O)n1OC(=O)/C=C/c1ccc(Cl)cc1	/	/	106.8	-22.0
COc1ccccc1-c1cc(C(F)(F)F)nc(S(=O)(=O)CCCC(=O)Nc2cc(Br)ccc2O)n1	106.1	85.7	110.8	-17.5
COc1ccc(CNC(=O)CN(C)S(=O)(=O)c2ccc3[nH]c4c(c3c2)CCCC4)cc1	93.9	85.2	103.6	/
O=C(NC1CCCCC1)c1ccc(-n2nc(OCc3cccc(F)c3)ccc2=O)cc1	/	/	100.5	15.9
Cc1cc(C)cc(NC(=O)C(C)N2Cc3ccccc3C2=O)c1 (stereo not drawn)	95.2	100.7	105.5	/
Cc1cc(C)c2nc(C(F)(F)F)nc(N3CC(C)OC(C)C3)c2c1 (stereo not drawn)	93.1	91.7	102.9	0.1
C=CCn1c(=O)c2ccc(C(=O)NC(C)C)cc2n2c(=O)n(CC(=O)NC3CCCCC3)nc12	/	/	107.0	6.9
Cc1cccc(N2CCN(C(=O)NCc3noc4ccccc34)CC2)c1C	108.4	67.3	99.6	/
CC1CCc2onc(C(=O)Nc3ccc(Cl)cc3)c2C1 (stereo not drawn)	104.6	92.4	92.7	/
Clc1ccc2nc(Nc3ccccc3Cl)nc(-c3ccccc3)c2c1	88.3	83.0	101.3	-42.2
Cc1cc(C)c(S(=O)(=O)N2CCc3nc(N4CCCCC4)ncc3C2)c(C)c1	/	/	108.7	-15.0
COc1ccc(C(=O)NCCc2csc3nc(-c4ccccc4C)nn23)cc1	/	/	103.9	-28.7
COc1ccc(C(=O)CCC(=O)Nc2cccnc2)c(OC)c1	96.6	79.5	98.8	-21.2
O=C(CN1CCCN(Cc2ccc(F)cc2)S1(=O)=O)Nc1ccc2c(c1)OCCO2	112.8	97.7	106.9&97.7	-13.8
O=C(Nc1ccc2c(c1)OCO2)c1cc2ccc3cccnc3c2[nH]1	/	/	105.2	-12.0
CC(C)CNC(=O)CSc1nnc(-c2ccc(Cl)cc2)n1N	105.4	94.9	/	-21.3
C=CCNc1oc(COc2ccccc2F)nc1C#N	85.4	73.3	100.8	/
Cc1nc2c(-c3ccccc3)c(C)nn2c(C)c1CCC(=O)NCc1cccc(Cl)c1	87.8	98.2	110.0	-17.3
Cc1ccccc1C1CC(=O)c2cnc3c(-c4ccc(F)cc4)c(C)nn3c2C1 (stereo not drawn)	/	/	94.9	-25.0
CCCNC(=O)c1nnc(Cc2ccccc2OC)o1	79.7	86.6	99.7	-9.7
O=C1C2CC=CCC2C(=O)N1Nc1ccccc1 (stereo not drawn)	89.8	88.4	/	-12.7
COc1ccc(OC)c(C2CC(c3ccc(OC)c(OC)c3)=NN2S(=O)(=O)c2ccc(C)cc2)c1 (stereo not drawn)	/	/	123.0	-20.2
CNC(=O)CSc1nnc(-c2ccccc2F)n1CCc1ccccc1	116.2	87.6	/	0.5
Cc1cc(C)c(NC(=O)c2cc(S(=O)(=O)N3CCc4ccccc43)ccc2F)c(C)c1	121.8	90.3	106.7	/

# 2 neighbouring compounds already listed, quoted:
SMILES	Sa growth 42C	Sa growth 42C second temp	GIV-Gai inh	HCMV NEC inh
Cc1oc2nc[nH]c(=O)c2c1C(=O)Nc1cccc(C(F)(F)F)c1	62.5	68.1	/	-24.3
COC(=O)N/N=C/c1c[nH]c2ccccc12	93.9	92.6	95.9	-38.7

# Continued.
SMILES	Sa growth 42C	Sa growth 42C second temp	GIV-Gai inh	HCMV NEC inh
CC(C)CCn1c(=O)c2ccc(C(=O)NC(C)C)cc2n2c(=O)n(CC(=O)NC(C)(C)C)nc12	/	/	105.1	-23.9
Cc1cc(C(=O)Nc2ccc(C)c(F)c2)n[nH]1	101.4	93.0	101.2&103.4	-10.9&-0.6
CCCCc1c(C)[nH]n(-c2nc(C)c(C(=O)NC(C)C)s2)c1=O	/	/	104.6	-26.9
O=C(CCc1nnc2ccc(N3CCCCC3)nn12)NCCN1CCOCC1	92.9	86.8	103.7	-30.4
CC1CC1C(=O)OCC(=O)Nc1ccc(Oc2ccccc2)cc1 (stereo not drawn)	97.3	88.1	/	-32.5
CCn1c2ccccc2c2nnc(SCC(=O)NCCc3ccc(OC)c(OC)c3)nc21	90.9	89.1	/	-28.2
CCOc1c(Nc2cc(Cl)ccc2C)c(=O)c1=O	/	/	99.2	-28.2
CC1=C(C(=O)Nc2ccc(F)cc2)SCCO1	106.1	93.4	107.5	-30.0
O=C(CN1C(=O)c2cccc3cccc1c23)N1CCCC1	107.5	74.9	104.3	-74.2
O=C(c1ccccc1)N1CCCC(c2nc3c(nnn3Cc3ccc(F)cc3F)c(=O)[nH]2)C1 (stereo not drawn)	91.1	80.4	92.7	-9.5
CCc1nnc(SCc2c(F)cccc2Cl)c2cc3sccc3n12	114.7	93.1	99.8	/
O=S(=O)(NCC1CCCO1)c1ccc(S(=O)(=O)N2CCN(c3ncccn3)CC2)cc1 (stereo not drawn)	113.2	93.7	101.0	-4.7
CCOc1ccc(-n2c(=S)sc3c(=O)[nH]c(SCC(=O)N(CC)CC)nc32)cc1	/	/	131.4	-26.0
Nc1cc(C(F)(F)F)ccc1-n1cnc2ccccc21	90.7	98.1	/	-13.0
CCc1cccc(CC)c1NC(=O)CN(C)S(=O)(=O)c1ccc2c(c1)n(C)c(=O)c(=O)n2C	93.6	89.0	103.1	-13.6
CCC(C)NC(=O)COc1cc(C)c2c(C)nn(C)c2n1 (stereo not drawn)	/	/	105.5	-31.1
Cc1ccc(CNC(=O)Cn2nnc(C(=O)Nc3cccc(C)c3C)c2N)cc1	/	/	102.8	-31.2
CCn1cnc(S(=O)(=O)N2CCC(C(=O)NC3CCCCC3)CC2)c1	/	/	105.3	-27.3
Cc1noc(C)c1C(=O)NCC1COc2ccccc2O1 (stereo not drawn)	107.9	85.2	/	16.8
CC1CCc2c(sc3nc(COC(=O)C4=NNC(=O)CC4)[nH]c(=O)c23)C1 (stereo not drawn)	82.4	82.7	/	-12.5
CCN(CC)CCCNC(=O)c1c(C)oc2ncnc(N3CCOCC3)c12	98.9	102.2	103.5	/
CC(C)CNC(=O)c1ccc(COc2ccc3ccccc3c2)o1	98.0	77.6	/	-18.0
COc1cc(OC)c(C(=O)NC2CC3CCC2(C)C3(C)C)cc1OC (stereo not drawn)	109.5	75.9	/	-14.5
COc1ccc2nc3c(nc2c1)C(=O)c1ccccc1C3=O	103.7	83.7	105.6	/
CCOc1ccc(CCNC(=O)CSc2cc(=O)n(C)c3ccc(Cl)cc23)cc1OCC	106.4	96.9	111.0	8.6
COc1ccc(CC2(O)CCC3(CC2)OCCO3)cc1	98.7	99.3	108.6	4.6
CCOC(=O)CSc1nnc(CSc2nc3ccccc3c(=O)[nH]2)n1-c1ccccc1	98.2	77.1	101.0	-20.7
CCOC(=O)c1[nH]c(C)c(C(=O)NC2CCCCCC2)c1C	82.1	83.9	94.8	-21.3
Cc1noc(-c2cccnc2NCc2ccccn2)n1	/	/	103.7	-4.6
O=C(CC(c1cccs1)N1Cc2ccccc2C1=O)Nc1ccc(Cl)cc1 (stereo not drawn)	113.2	101.2	102.1	/
Cc1cc(C)nc(NNC(=S)NCc2ccc3c(c2)OCO3)n1	79.8	96.1	/	-24.9
O=S(=O)(c1ccccc1)c1nc(-c2ccccc2)oc1NCCc1ccccc1	/	/	101.1	0.2
COC(=O)C1=C(N)OC2=C(C(=O)CC(c3ccccc3)C2)C1c1ccc2c(c1)OCO2 (stereo not drawn)	/	/	106.7	-17.0
CCC1CCCCN1C(=O)c1cccs1 (stereo not drawn)	111.6	108.1	97.5	-20.0
COc1ccc2nc(SCC(=O)c3ccc(O)c(O)c3)[nH]c2c1	98.8	70.3	104.4	-22.8
NC(=O)C1CCN(C(=O)COc2ccc3ccccc3c2)CC1	108.5	99.5	105.7	-11.1
COc1ccc(-c2c(C)c3ccc(O)c(CN4CCOCC4)c3oc2=O)cc1	99.9	93.6	98.6	/
O=S(=O)(Nc1ccccc1F)c1ccc2nc(-c3ccccc3)[nH]c2c1	142.8	94.6	102.2	-3.3
